Bioassay records from PubChem.
2A StopGo = High Throughput Screening for Foot and Mouth Disease Virus Antivirals | human cells with a luciferase reporter of 2A StopGo recoding; control for the full effect not named in the record | 1.2% of 410,000 active | Potency, µM (top dose mostly 57.9 µM), inactives show at the highest dose signal change, negative = less light; active = well fitted falling curve with a large enough effect; inconclusive = small, poorly fitted or top-dose-only effect; inactive = no such curve, though single readings can be large or run the other way; tested in HEK293T cells; further: on the % scale 0 is the no-effect control and ±100 the full control effect; nearly all actives have a fitted effect of over 45% in size; luciferase light after 4 h
RE007 growth inh = qHTS Assay for Inhibitors of the HIV-1 protein Vpr; 0.21% of 360,000 active; S. pombe RE007 Vpr strain, BacTiter-Glo ATP luminescence, 24 h; control for the full effect not named in the record; Potency, µM (doses to about 92.2 µM), for inactives: top-dose activity change, negative = less growth; active = well fitted falling curve with a large enough effect; inconclusive = small, poorly fitted or top-dose-only effect; inactive = no such curve, though single readings can be large or run the other way;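 further: on the % scale 0 is the no-effect control and ±100 the full control effect; nearly all actives have a fitted effect of over 50% in size; the assay follows cell death caused by Vpr and the record does not say whether a fall means rescue or toxicity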
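Fission yeast strain RE007, carrying one chromosomally integrated HIV-1 vpr copy, was seeded at OD 0.01 in PMG+AL medium with 23 nL pinned compound. After 24 h at 30 °C and 99% humidity, viability was read by BacTiter-Glo luminescence.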
MARV entry inh = qHTS for inhibitors of binding or entry into cells for Marburg Virus; Marburg virus pseudotyped entry inhibition, cell reporter; control for the full effect not named in the record; about a third of the inactives were read at about 46 µM; Potency, µM (top dose mostly 37.8 µM), for inactives: at the top dose activity change, negative = inhibition, most hits filed as inhibitors; 1.8% of 300,000 active; AID 540276, 2011; active = well fitted inhibition curve with a large enough effect; inconclusive = small, poorly fitted or top-dose-only effect, or effect the other way; inactive = flat fitted curve, though single readings scatter; tested in HEK293 cells; about a fifth of its hits are not listed in these tables; further: on the % scale 0 is the no-effect control and ±100 the full control effect; luciferase read-out
SARS PLpro yeast = qHTS of Yeast-based Assay for SARS-CoV PLP; 0.19% of 330,000 active; AID 485353, 2010; Potency, µM (top dose mostly 32.9 µM), for the others: top-dose activity, positive = growth rescue; S. cerevisiae expressing SARS-CoV PLpro, growth rescue; control for the full effect not named in the record; further: 0% is about no effect; nearly all actives have a fitted effect of over 55% in size; growth read by luminescence after 48 h
Lassa entry inh = qHTS for Inhibitors of binding or entry into cells for Lassa Virus | 1.2% of 300,000 active | Lassa virus pseudotype entry inhibition, cell reporter; control for the full effect not named in the record | Potency, µM (titrated, usually from 37.9 µM), for inactives: top-dose activity change, negative = inhibition, most hits filed as inhibitors | AID 540256, 2011; active means well fitted inhibition curve with a large enough effect; inconclusive means small, poorly fitted or top-dose-only effect, or effect the other way; inactive means flat fitted curve, though single readings scatter; tested in HEK293 cells; further: on the % scale 0 is the no-effect control and ±100 the full control effect; nearly all actives have a fitted effect of over 50% in size; luciferase read-out
Cruzain inh Det = qHTS Assay for Promiscuous and Specific Inhibitors of Cruzain (with detergent); purified cruzain, Z-FR-AMC fluorescence, 0.01% Triton; AID 1478, 2009; Cruzipain (Trypanosoma cruzi), P25779; 0.43% of 200,000 active; Potency, µM, inactives show max response, negative = inhibition, actives largely listed as inhibitors; active means well fitted curve in the direction sought with a large enough effect; inconclusive means small, poorly fitted or top-dose-only effect, or another doubt; inactive means no such curve, though single readings can be large; an effect the other way counts as inactive or inconclusive;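 further: plate controls were neutral wells for no effect and buffer without enzyme for full effect; nearly all actives have a fitted effect of over 40% in size; top concentration of the series not given in the record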
Target sequence (P25779 123-467 limits assumed): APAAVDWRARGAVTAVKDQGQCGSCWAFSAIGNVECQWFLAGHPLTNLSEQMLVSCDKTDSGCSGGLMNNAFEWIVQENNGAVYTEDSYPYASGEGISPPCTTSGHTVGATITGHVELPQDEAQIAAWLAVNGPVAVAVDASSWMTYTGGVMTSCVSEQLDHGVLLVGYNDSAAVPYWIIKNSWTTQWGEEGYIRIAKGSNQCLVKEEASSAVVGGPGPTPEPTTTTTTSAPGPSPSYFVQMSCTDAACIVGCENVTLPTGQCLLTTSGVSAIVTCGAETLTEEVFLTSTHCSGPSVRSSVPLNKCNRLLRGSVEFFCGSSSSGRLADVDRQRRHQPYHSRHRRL
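Detergent-containing run (0.01% Triton X-100) in acetate buffer pH 5.5 with 5 mM DTT: enzyme at 1.5 nM final, 15 min compound preincubation at room temperature, then 2 uM Z-FR-AMC substrate. Activity taken as 60 s fluorescence increase at 360/450 nm.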
Cruzain noTriton = qHTS Assay for Promiscuous and Specific Inhibitors of Cruzain (without detergent) | AID 1476, 2009 | 2.3% of 200,000 active | Potency, µM, inactives show max response, negative = inhibition, usual class: inhibitors | purified cruzain, Z-FR-AMC fluorescence, no detergent | Cruzipain (Trypanosoma cruzi), P25779; active means well fitted curve in the direction sought with a large enough effect; inconclusive means small, poorly fitted or top-dose-only effect, or another doubt; inactive means no such curve, though single readings can be large; an effect the other way counts as inactive or inconclusive;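 further: plate controls were enzyme without inhibitor for no effect and buffer without enzyme for full effect; nearly all actives have a fitted effect of over 40% in size; top concentration of the series not given in the record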
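Detergent-free condition (0.00005% Triton X-100) in acetate buffer pH 5.5 with DTT. 1.5 nM enzyme and compound were pre-mixed 15 min, then 2 uM Z-FR-AMC substrate added; reaction progress from fluorescence change between first and third reads (60 s).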
NS1 inh = qHTS Assay for Inhibitors of Influenza NS1 Protein Function | S. cerevisiae slowed by influenza A NS1, growth recovery by OD600 | AID 2326, 2010 | 0.4% of 270,000 active | Potency, µM (highest dose often 46.1 µM), for the others: top-dose activity, positive = more growth; further: actives are rising curves; nearly all actives have a fitted effect of over 50% in size
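In this qHTS, NS1 from influenza A is expressed in budding yeast, where it slows growth. Cells are switched from glucose to 2% galactose medium (pH 6.0, -URA), treated with compound, and growth recovery is read at OD600.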
The depositor's hits bear a star; u = inconclusive; x = no result given; & = joins results of further samples; [ ] = dose if it differs, or a comment. Unless noted, the call rests on the fitted dose curve; in most records, active means well fitted rising curve with a large enough effect; inconclusive means small, poorly fitted or top-dose-only effect; inactive means no such curve, though single readings can be large or run the other way. Potency means the concentration at half of the fitted maximal effect.

SMILES	2A StopGo	RE007 growth inh	MARV entry inh	SARS PLpro yeast	Lassa entry inh	Cruzain inh Det	Cruzain noTriton	NS1 inh
CC1=NN(c2ccccc2)C(=O)C1C=Nc1ccc(N(C)C)cc1 (stereo not given)	-2%	u	-29%[46.1 µM]	1%	-20%	x	x	1%
Cc1cc(C)nc(/N=C(\N)Nc2ccc(-c3ccccc3)cc2)n1	u	13%	u	0%	u	x	x	2%
COCCOC(=O)C1=C(C)NC(=O)CC1c1cc2c(cc1Br)OCO2 (stereo not given)	83%[activator]	0%	-11%&-11%	0%	-15%	5.5%	5%	-5%
C=CCNC(=O)C1CC2Cn3c(nc4cc(C)c(C)cc43)C2N1C (stereo not given)	4%	3%	x	-3%	x	x	x	3%
CS(=O)(=O)N(CC(=O)NCCc1ccccc1)c1cccc([N+](=O)[O-])c1	41%[activator]	4%	x	26%	x	x	x	1%
CN(Cc1nc2ccccc2c(=O)[nH]1)C(=O)c1ccc(S(=O)(=O)N(C)C)cc1	-11%	-8%	4%	15%	12%	2.6%	1%	2%
O=C1c2ccccc2CC1Sc1nnc(-c2ccncc2)o1 (stereo not given)	27%	-28%	2%	-12%	1%	-0.7%	-7%	2%
COc1ccc(-n2c(CCC(=O)O)ccc2-c2ccccc2)cc1	9%&-4%	-9%	x	1%	u	-5.0%	u	4%
COCCn1c(SCC(=O)c2ccc(C)cc2C)nc2cc(C(=O)NC3CCCC3)ccc2c1=O	-13%	x	x	x	2%[46.1 µM]	0.3%	-3%	x
O=c1cc(-c2ccccc2)n2c(SCc3ccccc3Cl)nnc2[nH]1	-3%	x	x	x	28%[46.1 µM]	0.6%	-3%	x
CC(C(=O)OCC(=O)c1ccccc1)N1C(=O)c2ccccc2C1=O (stereo not given)	0%	3%	1%	1%	15%	x	x	x
O=c1[nH]nc(Cc2ccc([N+](=O)[O-])cc2)c2ccccc12	u	20%	-18%	0%	-9%	x	x	0%
Clc1ccc(-c2nc3nc4ccccc4nc3n2Cc2ccco2)cc1	32%[activator]	26%	u	-11%	-23%	-18%	7%	-10%
CCCN(C(=O)CSc1nnc(N)s1)c1c(N)n(Cc2ccccc2)c(=O)[nH]c1=O	-16%	8%	-6%	1%	5%	x	x	x
Cc1[nH]n(-c2ccccc2)c(=O)c1C1(C(F)(F)F)C(=O)N(c2ccc(F)cc2)C2=C1C(=O)CC(C)(C)C2 (stereo not given)	-4%	-2%	-4%	-13%	5%	-3.9%	u	6%
Cc1ccc(-c2c(C(=O)Nc3ccc(F)c(F)c3)oc(=O)c3ccccc23)cc1	-12%	x	1%[46.1 µM]	x	u	-3.6%	-7%	x
Cc1cc(NCc2ccccn2)ccc1Br	66%[activator]	-4%	u	2%	-9%	1.5%	-4%	-31%
CCCNC(=O)Cn1nc(-c2ccc(OC)cc2)c2cnc3ccc(F)cc3c21	43%[activator]	x	x	x	u	-1.2%	-8%	x
Cc1ccc(C(=O)NS(=O)(=O)c2ccc(N=NN(C)C)cc2)cc1	10%	1%	16%[46.1 µM]	1%	1%	x	x	5%
Cc1ccc(-c2cnc(NC(=O)c3cccc(Br)c3)s2)c(C)c1	x	8%	u	5%	-23%	0.6%	u	10%
CC1CCN(S(=O)(=O)c2ccc3nc(Nc4cccc(C(F)(F)F)c4)ccc3c2)CC1	-25%	x	x	x	-10%[46.1 µM]	0.1%	u	x
O=C(CSc1nc(=O)n(CCCN2CCOCC2)c2c1CCCC2)Nc1ccccc1Cl	-3%	-6%	u	x	-5%[46.1 µM]	x	x	x
O=C1CCC(=O)N1c1ccc(NCCc2ccccc2F)c([N+](=O)[O-])c1	11%	-8%	u	1%	19%	x	x	x
CC1(C)Oc2ccc3ccc(=O)oc3c2/C(=C/Nc2ccccc2)C1=O	u	16%	-18%	0%	-27%	-1.4%	7%	9%
O=C(CCCOc1ccccc1)N1CCCCC1	0%	7%	u	7%	u	3.2%	-1%	-12%
COc1cc(OC)c(NC(=O)CCCNC(=O)Cn2cnc3sc(C)c(C)c3c2=O)cc1Cl	6%	-8%	u	8%	-13%[46.1 µM]	x	x	20%
CCNC(=S)Nc1ccc(Cc2ccncc2)cc1	10%	-12%	21%[46.1 µM]	0%	-14%[46.1 µM]	x	x	x
Cc1ccccc1NN1C(=O)C=CC1=O	u	-2%	0%	4%	5%	4.8%	-1%	1%
Cc1ccc(C)c(OCCC(=O)Nc2cccc(S(=O)(=O)N3CCCC3)c2)c1	13%	6%	u	1%	u	x	x	x
CN(C)S(=O)(=O)c1ccc(C(=O)Nc2nc(-c3cccs3)cs2)cc1	u	-18%	x	6%	x	-6.9%	9%	-36%
CC1=Nn2c(nnc2-c2cc(C)[nH]n2)SC1	0%	7%	19%	0%	-12%	-0.9%	-5%	1%
CC(C)(C)NC(=S)NC(C)(C)C	10%	23%	9%[46.1 µM]	0%	1%[46.1 µM]	x	x	-2%
Nc1c(C(=O)O)ccc2c1C(=O)c1ccccc1C2=O	-9%	u	-1%[46.1 µM]	-11%	6%[46.1 µM]	x	x	x
S=C(NCCc1ccc(Cl)cc1)NC1CC1	26%	-10%	x	1%	x	x	x	-8%
CCc1cc(C(=O)OC)c(NC(=O)C2CC(=O)NN2Cc2ccccc2)s1 (stereo not given)	19%	5%	-10%	-4%	2%	-0.7%	u	5%
CCN(CC)C(=O)c1cccc(NC(=O)CCc2nc3sc4c(c3c(=O)[nH]2)CCCC4)c1	u	-12%	-3%	-3%	-3%	x	x	x
CCCCn1c(N)c(N(CC(C)C)C(=O)CN2C(=O)NC3(CCC(C(C)(C)CC)CC3)C2=O)c(=O)[nH]c1=O (stereo not given)	-8%	-2%	13%	x	3%	x	x	x
Cc1cc(C)cc(OCc2nnc(SCC(=O)N3CCCCC3)o2)c1	-15%	6%	2%[46.1 µM]	2%	-4%	x	x	2%
COc1cc2c(cc1OC)CN(C(=S)Nc1cccc(Cl)c1C)CC2	-2%	2%	u	0%	u	x	x	-13%
O=C(/C=C/c1ccco1)NC(=S)Nc1nc(-c2ccc3ccccc3c2)cs1	-24%	-5%	u	8%	u	2.1%	4µM*	18%
Cc1ccc2oc(-c3cccc(NC(=O)Cc4cccs4)c3)nc2c1	37%[activator]	8%	21%	u	11%	3.2%	-17%	-10%
CC(Sc1nnc(Cc2ccc([N+](=O)[O-])cc2)o1)C(N)=O (stereo not given)	x	-4%	u	-5%	1%	8.6%	-6%	-5%
COc1ccc(CN(C)CC2CCCN(CCc3ccccc3C)C2)cc1O (stereo not given)	-11%	14%	8.9µM*	-10%	u	x	x	6%
O=C(CSc1nnc(NC(=O)c2ccccc2F)s1)NC1CCCC1	33%[activator]	7%	10%[46.1 µM]	-5%	1%[46.1 µM]	x	x	u
Cc1c2cnn(-c3ccccc3)c(=O)c2c(C)n1CC(=O)N1CCN(c2ccc(F)cc2)CC1	u	x	3%[46.1 µM]	x	1%[46.1 µM]	-6.2%	25%	x
COc1ccc([N+](=O)[O-])cc1NC(=O)C(C)Sc1nc(C)c(C)c(C)n1 (stereo not given)	-10%	-13%	-5%	18%	1%	-6.2%	u	5%
CC(C)Cn1c(=O)c2ccccc2n2c(-c3cccc(Cl)c3)nnc12	-21%	x	-3%[46.1 µM]	x	3%[46.1 µM]	-2.3%	9%	x
CCN(Cc1ccccc1)C(=O)CN(c1ccc(OC)cc1)S(=O)(=O)c1c(C)nn(C)c1C	3%	x	-3%[46.1 µM]	x	u	-1.8%	u	x
Cc1nnc(NC(=O)CSc2nnc(Cc3ccccc3)n2Cc2ccccc2)s1	-21%	-23%	8%	x	-17%	1.2%	0%	-12%
COC(=O)C1=C(C)N=C2SC(C#N)=C(N)N2C1c1cc(OC)c(OC)c(OC)c1 (stereo not given)	-14%	19%	-16%	6%	-13%	-0.3%	-3%	4%
O=C(Nc1ccccc1Cl)NC1(C(=O)N2CCC(O)CC2)CCCCC1	8%	-6%	-10%[46.1 µM]	2%	3%[46.1 µM]	x	x	12%
CCOc1ccc(C(=O)CSc2nnc(C3CC3)n2C)cc1	12%	32%	4%	-21%	19%	-5.9%	-16%	-3%
O=C(OCc1cn(-c2ccc(Cl)c(Cl)c2)nn1)c1ccccc1Cl	0%	21%	18%	-3%	14%	-1.7%	6%	2%
CCNC(=S)N(Cc1cc2cccc(C)c2[nH]c1=O)C1CCCC1	-15%	1%	6%	8%	2%	-3.6%	-1%	u
CCCn1nnc(NC(=O)c2cccc(Cl)c2)n1	39%[activator]	-13%	u	3%	u	3.6%	-6%	-3%
O=C1CSC(c2cccnc2)N1Cc1ccc(Cl)c(Cl)c1 (stereo not given)	-15%	11%	x	-11%	x	x	x	-2%
COc1cc(NC(=S)NCCc2ccccc2)c(OC)cc1NC(=O)C(C)C	9%	-19%	x	0%	x	x	x	-64%
CC(=O)c1ccc(OCCCC(=O)Nc2nnc(C3CC3)s2)cc1	0%	18%	-20%	7%	-10%	x	x	x
C(C#CCN1CCOCC1)#CCN1CCOCC1	0%	13%	3%[46.1 µM]	x	14%[46.1 µM]	x	x	x
Cc1nc2ncccn2c1-c1csc(Nc2ccc(N(C)C)cc2)n1	u	7%	u	-1%	-3%	x	x	16%
CC(C)(C)c1cc(Cl)ccc1OCCn1ccnc1	-16%	0%	u	-10%	u	x	x	-78%
CS(=O)(=O)Nc1ccc(Cc2ccc(NS(C)(=O)=O)cc2)cc1	u	-8%	-5%	1%	0%	-1.1%	u	5%
Cc1cc(C)cc(OCC(=O)NCCc2nc3ccccc3[nH]2)c1	-23%&-15%	2%	-24%&-24%	0%	13%	16µM*	17%	4%
